Screening results as filed in PubChem BioAssay.
MARV entry inh: Marburg virus entry inhibition | Marburg virus pseudotyped entry inhibition, cell reporter; control for the full effect not named in the record; about a third of the inactives were read at about 46 µM | Potency, µM (top dose mostly 37.8 µM), for inactives: at the top dose activity change, negative = inhibition, most hits filed as inhibitors | 300,000 compounds, 1.8% hits | AID 540276; active = well fitted inhibition curve with a large enough effect; inconclusive = small, poorly fitted or top-dose-only effect, or effect the other way; inactive = flat fitted curve, though single readings scatter; tested in HEK293 cells; about a fifth of its hits are not listed in these tables; note: % is set by controls: 0 for no effect and ±100 for the full control effect; luciferase read-out
Cruzain inh noDet: cruzain (T. cruzi) inhibition without detergent; P25779; purified cruzain, Z-FR-AMC fluorescence, no detergent; Potency, µM, without a hit: max response, negative = inhibition, hits mostly inhibitors; 200,000 compounds, 2.3% hits; active = well fitted curve in the direction sought with a large enough effect; inconclusive = small, poorly fitted or top-dose-only effect, or another doubt; inactive = no such curve, though single readings can be large; an effect the other way counts as inactive or inconclusive;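 note: plate controls were enzyme without inhibitor for no effect and buffer without enzyme for full effect; nearly all actives have a fitted effect of over 40% in size; top concentration of the series not given in the record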
Target sequence (P25779 123-467 limits assumed): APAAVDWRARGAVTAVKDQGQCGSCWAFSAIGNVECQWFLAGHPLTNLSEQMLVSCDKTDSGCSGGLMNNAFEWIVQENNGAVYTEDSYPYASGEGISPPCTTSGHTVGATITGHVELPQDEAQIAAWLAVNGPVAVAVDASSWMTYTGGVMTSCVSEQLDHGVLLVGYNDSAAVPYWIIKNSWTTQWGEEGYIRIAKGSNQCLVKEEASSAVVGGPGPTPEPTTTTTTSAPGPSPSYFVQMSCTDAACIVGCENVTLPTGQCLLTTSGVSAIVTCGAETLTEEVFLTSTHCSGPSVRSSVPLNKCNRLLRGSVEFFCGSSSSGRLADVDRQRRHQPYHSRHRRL
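Purified cruzain at 1.5 nM, pre-incubated 15 min with compound at room temperature in 100 mM sodium acetate pH 5.5, 5 mM DTT, 0.00005% Triton X-100. Reaction started with 2 uM Z-FR-AMC; AMC fluorescence increase over 60 s gives rate.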
RE007 growth inh: less growth of the S. pombe RE007 Vpr strain; S. pombe RE007 Vpr strain, BacTiter-Glo ATP luminescence, 24 h; control for the full effect not named in the record; Potency, µM (highest dose often 92.2 µM), for the others: at the top dose activity change, negative = less growth; 360,000 compounds, 0.21% hits; AID 651644; active = well fitted falling curve with a large enough effect; inconclusive = small, poorly fitted or top-dose-only effect; inactive = no such curve, though single readings can be large or run the other way;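 note: % is set by controls: 0 for no effect and ±100 for the full control effect; nearly all actives have a fitted effect of over 50% in size; the assay follows cell death caused by Vpr and the record does not say whether a fall means rescue or toxicity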
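Fission yeast RE007 carrying one integrated HIV-1 vpr copy, seeded at OD 0.01 in PMG+AL medium with 23 nL pinned compound. Grown 24 h at 30 degrees; viability read by BacTiter-Glo luminescence after 5 min.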
Lassa entry inh: inhibitors of Lassa virus binding or cell entry | Lassa virus pseudotype entry inhibition, cell reporter; control for the full effect not named in the record | Potency, µM (series often up to 37.9 µM), for the others: at the top dose activity change, negative = inhibition, hits mostly inhibitors | 300,000 compounds, 1.2% hits; active means well fitted inhibition curve with a large enough effect; inconclusive means small, poorly fitted or top-dose-only effect, or effect the other way; inactive means flat fitted curve, though single readings scatter; tested in HEK293 cells; note: % is set by controls: 0 for no effect and ±100 for the full control effect; nearly all actives have a fitted effect of over 50% in size; luciferase read-out
StopGo reporter: lowers the luciferase signal of an FMDV 2A StopGo reporter; AID 1159524; 410,000 compounds, 1.2% hits; Potency, µM (highest dose often 57.9 µM), inactives show at the highest dose signal change, negative = less light; human cells with a luciferase reporter of 2A StopGo recoding; control for the full effect not named in the record; active = well fitted falling curve with a large enough effect; inconclusive = small, poorly fitted or top-dose-only effect; inactive = no such curve, though single readings can be large or run the other way; tested in HEK293T cells; note: % is set by controls: 0 for no effect and ±100 for the full control effect; nearly all actives have a fitted effect of over 45% in size; luciferase light after 4 h
NS1 function inh: blocks influenza NS1 protein function; 270,000 compounds, 0.4% hits; Potency, µM (doses to about 46.1 µM), for inactives: at the highest dose activity, positive = more growth; S. cerevisiae slowed by influenza A NS1, growth recovery by OD600; note: actives are rising curves; nearly all actives have a fitted effect of over 50% in size
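Growth recovery, yeast-based: influenza A NS1 expressed in S. cerevisiae causes slow growth, and suppressors are detected by OD600. The parent strain without NS1 is used as positive control.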
Cruzain inh Det: cruzain (T. cruzi) inhibition with detergent | purified cruzain, Z-FR-AMC fluorescence, 0.01% Triton | Potency, µM, without a hit: max response, negative = inhibition, hits mostly inhibitors | 200,000 compounds, 0.43% hits | AID 1478; active = well fitted curve in the direction sought with a large enough effect; inconclusive = small, poorly fitted or top-dose-only effect, or another doubt; inactive = no such curve, though single readings can be large; an effect the other way counts as inactive or inconclusive;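 note: plate controls were neutral wells for no effect and buffer without enzyme for full effect; nearly all actives have a fitted effect of over 40% in size; top concentration of the series not given in the record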
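Compounds were screened in titration against cruzain (1.5 nM) with 0.01% Triton X-100 to counter colloidal aggregation. Activity was the AMC fluorescence increase over 60 s after adding 2 uM Z-FR-AMC at pH 5.5.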
SARS PLP yeast: inhibitors of SARS-CoV papain-like protease in yeast. S. cerevisiae expressing SARS-CoV PLpro, growth rescue; control for the full effect not named in the record. Potency, µM (titrated, usually from 32.9 µM), for the others: top-dose activity, positive = growth rescue. 330,000 compounds, 0.19% hits. AID 485353; note: 0% is about no effect; nearly all actives have a fitted effect of over 55% in size; growth read by luminescence after 48 h
The depositor's hits bear a star; ? = inconclusive; · = no result given; & = joins results of further samples; [ ] = remark or other dose. Unless noted, calls come from the whole dose curve; as a rule, active means well fitted rising curve with a large enough effect; inconclusive means small, poorly fitted or top-dose-only effect; inactive means no such curve, though single readings can be large or run the other way. Potency is the fitted concentration of half-maximal effect. Rows were taken by chance. About 4.8% of those tested had a hit in this group.

structure	MARV entry inh	Cruzain inh noDet	RE007 growth inh	Lassa entry inh	StopGo reporter	NS1 function inh	Cruzain inh Det	SARS PLP yeast
CCCCn1c(N)c(N(Cc2ccccc2OC)C(=O)c2c(CC)noc2C)c(=O)[nH]c1=O	28.7%	·	1.7%	3.2%	-11.2%	2.7%	·	1.1%
O=C(Nc1ccc2c(c1)OCO2)C1CCCN1C(=O)NCc1ccccc1 (stereo not given)	18.5%	0.4%	12.5%	20.9%	22.4%	2.4%	7.1%	11.0%
CO[C@]1(C2=NCCN2)COc2ccccc2O1	7.6%&7.6%	-2.5%	·	·	-4.5%	·	0.7%	·
OC1CCCN(C(=S)Nc2ccc(SC(F)F)cc2)C1 (stereo not given)	3.2%	12.4%	4.3%	?	64.0%[activator]	5.6%	-2.4%	4.7%
CC(Oc1ccccc1)C(=O)Nc1ccccc1O (stereo not given)	-9.4%	2.6%	-2.1%	-23.6%	3.4%	10.4%	-7.7%	-8.8%
O=C1CC(NCc2ccccc2F)C(=O)N1c1ccccc1 (stereo not given)	-2.0%	-2.0%	-1.0%	-2.2%	0.0%	1.2%	0.8%	-2.2%
Cc1cc(Br)cnc1NC(=S)Nc1ccc(F)cc1F	?	·	-1.2%	4.5%[46.1 µM]	8.1%	-4.4%	·	0.3%
O=C(CNC(=O)c1ccc(-c2ccccc2)cc1)OCc1ccc(Cl)cc1	-7.4%	?	2.9%	-10.1%	-13.7%	-5.2%	-0.7%	6.3%
Cc1cc(OCC(=O)c2ccc(Br)cc2)ccc1N1C(=O)CCC1=O	-24.1%	?	-8.6%	20.8%	-4.6%	10.8%	-0.1%	19.4%
COc1cc(S(=O)(=O)NC2CCCCC2)ccc1F	4.1%	-12.7%	-13.5%	?	57.3%[activator]	-97.1%	-2.6%	-15.2%
CCCCNC(=O)c1cccc(NC(=O)C(=O)c2ccccc2NC(C)=O)c1	1.7%	7.4%	-5.8%	-4.9%	-8.3%	-1.4%	-1.9%	4.0%
CC(C)c1ccc(NC(=O)Cc2ccc(NC3=NC4CS(=O)(=O)CC4S3)cc2)cc1 (stereo not given)	·	·	-1.0%	·	16.9%	8.6%	·	2.5%
Cc1ccc(/C=C2/C(=O)NC(=O)N(C)C2=O)cc1	?	14.9%	-9.3%	1.3%	-27.7%	?	-1.9%	2.1%
COc1ccc(NC(=O)c2nnn(Cc3ccc(Br)cc3F)c2N)c(OC)c1	-2.2%[46.1 µM]	-6.8%	·	2.2%[46.1 µM]	-6.8%	·	-2.7%	·
Cc1c(C(=O)Nc2cccc(F)c2)cnn1-c1ccccc1	?	·	-28.1%	?	-10.1%	-68.5%	·	-11.3%
CN(C)CCCNc1cc(-c2ccccc2)nc2cc(-c3cccc(F)c3)nn12	·	·	1.9%	·	-20.0%	-4.7%	·	-9.1%
Cc1ccc(NCc2nnc(SCC(=O)Nc3ncc(C)s3)n2CC2CCCO2)c(C)c1 (stereo not given)	?	?	-11.3%	-13.8%	-26.8%	-1.4%	-0.8%	-2.0%
COc1ccccc1NS(=O)(=O)c1ccc(NC(=O)c2nc3ncccn3n2)cc1	18.7%	-9.2%	-24.2%	-13.3%	5.8%	-15.8%	-2.0%	4.1%
O=C(NCCNc1ccc([N+](=O)[O-])cc1Cl)c1ccccc1F	·	·	-1.8%	·	-9.0%	12.1%	·	1.2%
COc1cc(/C=C/C(=O)OCC(=O)N2CCc3ccccc3C2)ccc1O	5.4%	3.0%	18.8%	2.1%	-2.8%	-45.6%	-3.6%	-28.3%
Cc1cc(C(=O)N(C)CC(=O)Nc2ccc(Cl)c(C(F)(F)F)c2)no1	-9.4%	·	2.5%	-19.4%	-23.7%	·	·	3.2%
Nc1cccc(C(=O)O)c1	-2.6%&-2.6%&-2.6%	9.8%	-4.2%[18.4 µM]	-2.9%	-12.9%	3.1%	-1.4%	1.1%
Cc1nc2nc(NCc3ccccc3Cl)[nH]n2c(=O)c1Cc1ccccc1	-9.8%[46.1 µM]	-2.5%	·	-13.5%[46.1 µM]	0.6%	·	-3.2%	·
COc1ccc(NC(=S)NN2CCOCC2)cc1OC	?	3.3%	-17.1%	12.5%	-6.0%	3.6%	2.2%	4.8%
CSc1ncccc1C(=O)NCCc1ccc(S(N)(=O)=O)cc1	1.3%[46.1 µM]	·	0.0%	8.9%[46.1 µM]	-3.5%	-5.3%	·	-1.5%
CCN(CC)S(=O)(=O)c1cccc(C(=O)NC(C(=O)Nc2nnc(C)s2)C(C)C)c1 (stereo not given)	-14.8%	7.8%	6.8%	-12.4%	?	0.4%	-4.0%	0.3%
Cc1nn(-c2ccccc2)c(C)c1/C=N/NC(=O)c1cc(O)cc(O)c1	·	·	3.4%	·	-4.4%	-2.1%	·	?
Cc1cc(N2CCOCC2)nc(SCc2ccc(Cl)cc2Cl)n1	?	6.4%	-19.5%	-11.6%	-21.0%	-113.8%	-4.6%	-32.2%
Cc1ccc(/C=N/N(C)C2=NS(=O)(=O)c3ccccc32)cc1	14.6%[46.1 µM]	·	1.4%	-2.2%[46.1 µM]	-15.6%	-3.5%	·	-2.3%
COc1cc2c(cc1OC)C(C(C)C)=NC(C)(C)C2	1.3%	20µM*	24.7%	10.3%	-9.2%	5.3%	?	11.4%
COC(=O)c1ccc(NC(=O)CC2C(=O)N(c3cccc(C)c3)C(=O)N2Cc2ccco2)cc1 (stereo not given)	·	-8.3%	·	4.2%[46.1 µM]	-7.0%	·	-4.3%	·
Cc1nc(/N=C(\N)NC(=O)NC2CCCCC2)nc2ccccc12	7.94µM*	·	1.9%	22.4µM*	31.6µM*	-8.0%	·	-2.4%
Fc1cccc(Cc2noc(CN3CCN(C4CCc5ccccc5C4)CC3)n2)c1 (stereo not given)	13.3%[46.1 µM]	·	-2.6%	9.4%	-29.0%	6.4%	·	-1.0%
CNC(=O)c1cc(C(=O)c2ccc(F)cc2Cl)c[nH]1	·	·	3.5%	·	1.7%	3.5%	·	1.9%
O=S(=O)(NCC1CCCO1)c1cc(Br)c(Br)s1 (stereo not given)	13.6%	-3.1%	?	-0.7%	36.3%[activator]	?	0.1%	-5.4%
Cc1nc(Nc2ccc(F)cc2)[nH]c(=O)c1CCC(C)C	?	7.3%	10.7%	-11.5%	?	-106.1%	-10.2%	-81.5%
Cc1ccc(S(=O)(=O)N2CCC(C(=O)N/N=C/c3ccccc3[N+](=O)[O-])CC2)cc1	?	0.7%	·	-0.1%	-8.5%	-10.0%	-5.6%	13.9%
COC(=O)c1sccc1N(C)S(C)(=O)=O	-17.2%[46.1 µM]	·	5.7%	0.1%[46.1 µM]	-11.4%	6.3%	·	1.6%
O=C(CCn1c2c(c3ccccc31)CCCC2)NNC(=O)c1ccccc1C(=O)O	·	·	-2.6%	·	?	10.8%	·	0.5%
CCOc1c(O)ccc(/C=C2\SC(=S)NC2=O)c1[N+](=O)[O-]	0.6%[46.1 µM]	·	8.6%	?	12.5%	-4.9%	·	-0.1%
O=C(NCC(c1ccco1)N1CCc2ccccc2C1)c1ccccc1Cl (stereo not given)	-7.9%	·	-13.0%	4.3%	-5.2%	·	·	-1.9%
COc1ccc(Cl)cc1NC(=O)Cn1c(=O)n(Cc2ccco2)c(=O)c2cccnc21	5.7%[46.1 µM]	-7.1%	·	·	0.0%	·	-4.4%	·
Cc1ccc(CN2CCCC(C(=O)c3sccc3C)C2)o1 (stereo not given)	?	·	1.1%	21.2%[46.1 µM]	-6.7%	-1.8%	·	0.8%
Nc1c(Br)cc(Br)c2c1-c1ccc([N+](=O)[O-])cc1C2	6.4%	·	23.4%	16.7%	-9.4%	·	·	·
CCCCN(Cc1ccccc1)C(=O)C1CCCN(S(=O)(=O)c2cnc[nH]2)C1 (stereo not given)	·	2.3%	-1.2%	·	-4.8%	-5.7%	2.5%	-5.5%
COCCCNc1oc(COc2ccc(Cl)cc2Cl)nc1C#N	-9.7%	3.2%	11.1%	-1.4%	-17.9%	-71.0%	-0.5%	-2.0%
CCOc1ccc(N2C(=O)CN=C2Nc2ccccc2Cl)cc1	7.3%	-7.8%	-15.2%	-13.8%	2.2%	10.4%	2.1%	3.4%
CCN(CC)C(CNC(=O)c1cc(=O)[nH]c2ccccc12)c1ccccc1Cl (stereo not given)	6.3%	·	-8.7%	5.3%	-9.4%	3.9%	·	-1.8%
CN(C)/C=C1\C(=O)N(c2ccc(Oc3ccccc3)cc2)CS1=O (stereo not given)	12.0%	-3.9%	-2.5%	18.8%	42.2%[activator]	7.1%	1.1%	-0.5%
CCOc1ccc(NC(=O)CN(C)C(=O)Cc2c(C)nc3ccccc3c2C)cc1OCC	-17.7%	·	-4.2%	2.6%	?	-3.1%	·	3.8%

More entries follow.
structure	MARV entry inh	Cruzain inh noDet	RE007 growth inh	Lassa entry inh	StopGo reporter	NS1 function inh	Cruzain inh Det	SARS PLP yeast
COc1ccc(CCNC2=C(Cl)C(=O)N(Cc3ccccc3)C2=O)cc1OC	11.2µM*	·	8.1%	?	25.1µM*	6.0%	·	0.1%
O=C(N/N=C/c1cccs1)c1ccc2c(c1)OCO2	?	-5.6%	-2.2%	?	-39.4%	-19.8%	-2.3%	-37.5%
Cc1cccc(-c2nc3c4ccccc4nc(NCc4ccc(F)cc4)n3n2)c1	?	1.6%	·	·	18.8%	·	1.1%	·
CCC(C(=O)NCc1ccccc1Cl)n1c(=O)c2cccn2c2ccccc21 (stereo not given)	·	-6.1%	·	-23.6%[46.1 µM]	22.5%	·	-7.2%	·
Cc1cccc(OCCCn2c(CCNC(=O)C(C)C)nc3ccccc32)c1	?	15.6%	-3.9%	13.0%	-28.4%	-13.0%	-2.4%	-16.4%
